# Source: PubChem (National Center for Advancing Translational Sciences (NCATS))
# SARS PLpro yeast: qHTS of Yeast-based Assay for SARS-CoV PLP; S. cerevisiae expressing SARS-CoV PLpro, growth rescue; control for the full effect not named in the record; hit rate 0.19% among 330,000; Potency, µM (doses to about 32.9 µM), for inactives: top-dose activity, positive = growth rescue; AID 485353, 2010; active means well fitted rising curve with a large enough effect; inconclusive means small, poorly fitted or top-dose-only effect; inactive means no such curve, though single readings can be large or run the other way; note: 0% is about no effect; nearly all actives have a fitted effect of over 55% in size; growth read by luminescence after 48 h
# MARV entry inh: qHTS for inhibitors of binding or entry into cells for Marburg Virus | Marburg virus pseudotyped entry inhibition, cell reporter; control for the full effect not named in the record; about a third of the inactives were read at about 46 µM | Potency, µM (highest dose often 37.8 µM), for the others: at the highest dose activity change, negative = inhibition, hits mostly inhibitors | hit rate 1.8% among 300,000 | AID 540276, 2011; active = well fitted inhibition curve with a large enough effect; inconclusive = small, poorly fitted or top-dose-only effect, or effect the other way; inactive = flat fitted curve, though single readings scatter; tested in HEK293 cells; about a fifth of its hits are not listed in these tables; note: % is set by controls: 0 for no effect and ±100 for the full control effect; luciferase read-out
# Lassa entry inh: qHTS for Inhibitors of binding or entry into cells for Lassa Virus; Lassa virus pseudotype entry inhibition, cell reporter; control for the full effect not named in the record; Potency, µM (highest dose often 37.9 µM), for inactives: at the highest dose activity change, negative = inhibition, actives largely listed as inhibitors; hit rate 1.2% among 300,000; AID 540256, 2011; active means well fitted inhibition curve with a large enough effect; inconclusive means small, poorly fitted or top-dose-only effect, or effect the other way; inactive means flat fitted curve, though single readings scatter; tested in HEK293 cells; note: % is set by controls: 0 for no effect and ±100 for the full control effect; nearly all actives have a fitted effect of over 50% in size; luciferase read-out
# 2A StopGo: High Throughput Screening for Foot and Mouth Disease Virus Antivirals; AID 1159524, 2015; Potency, µM (doses to about 57.9 µM), inactives show at the top dose signal change, negative = less light; human cells with a luciferase reporter of 2A StopGo recoding; control for the full effect not named in the record; hit rate 1.2% among 410,000; active = well fitted falling curve with a large enough effect; inconclusive = small, poorly fitted or top-dose-only effect; inactive = no such curve, though single readings can be large or run the other way; tested in HEK293T cells; note: % is set by controls: 0 for no effect and ±100 for the full control effect; nearly all actives have a fitted effect of over 45% in size; luciferase light after 4 h
# Cruzain inh noDet: qHTS Assay for Promiscuous and Specific Inhibitors of Cruzain (without detergent) | AID 1476, 2009 | Cruzipain (Trypanosoma cruzi), P25779 | purified cruzain, Z-FR-AMC fluorescence, no detergent | hit rate 2.3% among 200,000 | Potency, µM, for inactives: max response, negative = inhibition, most hits filed as inhibitors;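 note: plate controls were enzyme without inhibitor for no effect and buffer without enzyme for full effect; nearly all actives have a fitted effect of over 40% in size; top concentration of the series not given in the record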
# Target sequence (P25779 123-467 limits assumed): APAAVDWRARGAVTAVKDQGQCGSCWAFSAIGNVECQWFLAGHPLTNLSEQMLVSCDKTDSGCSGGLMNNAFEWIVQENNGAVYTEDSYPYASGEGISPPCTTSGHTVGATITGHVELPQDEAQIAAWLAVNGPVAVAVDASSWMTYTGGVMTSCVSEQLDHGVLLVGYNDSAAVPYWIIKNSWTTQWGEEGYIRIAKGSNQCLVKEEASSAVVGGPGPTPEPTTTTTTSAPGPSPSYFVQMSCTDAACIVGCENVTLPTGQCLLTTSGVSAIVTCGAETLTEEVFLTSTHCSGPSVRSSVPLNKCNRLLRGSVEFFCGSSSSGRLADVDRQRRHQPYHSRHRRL
#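 Detergent-free condition (0.00005% Triton X-100) in acetate buffer pH 5.5 with DTT. 1.5 nM enzyme and compound were pre-mixed 15 min, then 2 uM Z-FR-AMC substrate added; reaction progress from fluorescence change between first and third reads (60 s).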
# Cruzain inh Det: qHTS Assay for Promiscuous and Specific Inhibitors of Cruzain (with detergent); Cruzipain (Trypanosoma cruzi), P25779; purified cruzain, Z-FR-AMC fluorescence, 0.01% Triton; AID 1478, 2009; Potency, µM, for the others: max response, negative = inhibition, usual class: inhibitors; hit rate 0.43% among 200,000;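 note: plate controls were neutral wells for no effect and buffer without enzyme for full effect; nearly all actives have a fitted effect of over 40% in size; top concentration of the series not given in the record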
#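 Sodium acetate buffer (100 mM, pH 5.5) containing 5 mM DTT and 0.01% Triton X-100 hosted 1.5 nM cruzain and test compound for 15 min at room temperature. Cleavage of 2 uM Z-FR-AMC was then tracked by fluorescence.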
# RE007 growth inh: qHTS Assay for Inhibitors of the HIV-1 protein Vpr; S. pombe RE007 Vpr strain, BacTiter-Glo ATP luminescence, 24 h; control for the full effect not named in the record; hit rate 0.21% among 360,000; Potency, µM (highest dose often 92.2 µM), inactives show top-dose activity change, negative = less growth; active = well fitted falling curve with a large enough effect; inconclusive = small, poorly fitted or top-dose-only effect; inactive = no such curve, though single readings can be large or run the other way;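 note: % is set by controls: 0 for no effect and ±100 for the full control effect; nearly all actives have a fitted effect of over 50% in size; the assay follows cell death caused by Vpr and the record does not say whether a fall means rescue or toxicity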
#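 Fission yeast RE007 carrying one integrated HIV-1 vpr copy, seeded at OD 0.01 in PMG+AL medium with 23 nL pinned compound. Grown 24 h at 30 degrees; viability read by BacTiter-Glo luminescence after 5 min.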
# NS1 inh: qHTS Assay for Inhibitors of Influenza NS1 Protein Function. S. cerevisiae slowed by influenza A NS1, growth recovery by OD600. Potency, µM (titrated, usually from 46.1 µM), for inactives: at the top dose activity, positive = more growth. hit rate 0.4% among 270,000. AID 2326, 2010; active means well fitted rising curve with a large enough effect; inconclusive means small, poorly fitted or top-dose-only effect; inactive means no such curve, though single readings can be large or run the other way; note: nearly all actives have a fitted effect of over 50% in size
#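 Compounds were scored for reversing the slow growth caused by influenza A NS1 in S. cerevisiae, measured by optical density at 600 nm. Assay medium contained 2% galactose at pH 6.0; NS1-free yeast of the same strain were the positive control.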
# The depositor's hits bear a star; ? = inconclusive; / = not tested or not shown; & = joins results of further samples; [ ] = another dose, or the depositor's remark. Unless noted, calls come from the whole dose curve; as a rule, active = well fitted curve in the direction sought with a large enough effect; inconclusive = small, poorly fitted or top-dose-only effect, or another doubt; inactive = no such curve, though single readings can be large; an effect the other way counts as inactive or inconclusive. Potency is the fitted concentration of half-maximal effect.
canonical_smiles	SARS PLpro yeast	MARV entry inh	Lassa entry inh	2A StopGo	Cruzain inh noDet	Cruzain inh Det	RE007 growth inh	NS1 inh
CN(C)S(=O)(=O)c1ccc(C(=O)N(Cc2cccnc2)c2nc3c(F)cc(F)cc3s2)cc1	/	/	-11%[46.1 µM]	-22%	20%	-0.7%	/	/
CCc1ccc(NC(=O)C2CCN(S(=O)(=O)c3cccc(-c4noc(C)n4)c3)CC2)cc1	/	/	?	-16%	6%	1.9%	/	/
O=C(CN1C(=O)c2ccccc2S1(=O)=O)NCc1ccccc1	2%	5%[46.1 µM]	3%	35%[activator]	/	/	1%	-1%
CNC(=O)c1ccc(-c2cc(C(F)(F)F)nn2C)s1	0%	/	/	53%[activator]	/	/	0%	-5%
COC(=O)c1cn(NC(=O)/C=C/c2cccc(OC)c2OC)c(=O)c2ccccc12	21%	4%	6%	/	?	-22%	/	?
CC(C)Nc1ccc(Nc2ccnc3cc4ccccc4cc23)cc1	-1%	5.2µM*	6.3µM*	-29%	/	/	-16%	-9%
Cc1ccc(Nc2nc(-c3ccc(O)c(O)c3)cs2)nc1	2%	?	-10%	-8%	/	/	10%	13%
COc1ccc(CCNC(=O)CCC(=O)N2CCN(S(=O)(=O)c3ccccc3)CC2)cc1OC	1%	-19%&-19%	14%	-6%	-1%	3.5%	21%	-6%
Cc1ccc(S(=O)(=O)CCN2CCN(c3ccccn3)CC2)cc1	0%	-2%	-4%	-4%	/	/	-8%	3%
CCOC(=O)c1ccc(NC(=O)C(=O)NCCc2ccc(OC)cc2)cc1	-1%	12%&12%[46.1 µM]	22%&-1%[46.1 µM]	-17%&-19%	-1%	0.3%	9%	1%
CC(C)c1nc(Cl)c(C#N)c2c1CCC2	0%	8%	-2%	-13%	/	/	-10%	1%
CCCCc1cc(=O)oc2c(C)c(OCc3nn[nH]n3)ccc12	0%	-1%[46.1 µM]	1%	4%	/	/	8%	1%
CCOc1ccccc1NC(=O)NCc1ccco1	-1%	4%[46.1 µM]	0%[46.1 µM]	8%	/	/	-16%	-2%
O=C(N/N=C1\CCS(=O)(=O)c2ccc(F)cc21)c1ccc([N+](=O)[O-])cc1	1%	/	/	8%	/	/	15%	?
Cc1ccc(C(C)C)c(OCCCN2CC(C)OC(C)C2)c1 (stereo not drawn)	1%	0%	-11%	?	19%	3.9%	-8%	-20%
CCC(=O)Oc1ccc(NC(=O)c2ccco2)cc1	-2%	24%[46.1 µM]	0%[46.1 µM]	-8%	/	/	-28%	-9%
CC(=O)Nc1ccc(S(=O)(=O)N2CCNC(=O)C2)cc1	-4%	10%	?	30%	/	/	21%	/
CCOC(=O)C(Sc1ncc(C#N)c(N)n1)C(C)C (stereo not drawn)	9%	9%	-11%	?	-13%	-0.2%	10%	-7%
CCOc1ccccc1C1CC(=O)Nc2cc(C)c(C)cc21 (stereo not drawn)	4%	/	/	-18%	/	/	5%	-3%
CCc1c(C)c(C#N)c2nc3ccccc3n2c1Cl	-2%	/	/	/	-8%	-3.0%	/	-4%
CCOC(=O)c1c(NC(=O)CN2CCCCC2)sc2c1CCCC2O (stereo not drawn)	-2%	/	/	-27%	-12%	-0.7%	0%	3%
COc1cc2c(cc1OC)C(C)N(C(=O)Nc1ccccc1)CC2 (stereo not drawn)	0%	?	-20%	-18%	/	/	0%	-3%
COc1ccccc1C1NC(=O)c2n[nH]c(-c3cccs3)c21 (stereo not drawn)	/	?	-14%[46.1 µM]	?	-14%	-5.0%	/	/
COc1ccc(C(CNC(=O)c2cc3c(s2)CCCC3)N2CCOCC2)cc1 (stereo not drawn)	1%	?	-9%[46.1 µM]	-17%	/	/	5%	0%
CSc1nc2c(c(C(F)(F)F)n1)CC(C)CC2 (stereo not drawn)	-2%	?	-23%	0%	-6%	3.3%	30%	2%
Cc1cc(C)cc(N(C(=O)Cn2nnc(-c3ccccc3)n2)C(C(=O)NC2CCCCC2)c2ccccn2)c1 (stereo not drawn)	-4%	?	3%	-19%	8%	-0.7%	15%	6%
Cc1ccc(OCC(=O)c2ccc3c(c2)CCCC3)cc1C	-11%	0%	-2%	32%[activator]	4%	0.0%	-2%	8%
Cc1nn(-c2ccccc2)c(C)c1C=O	0%	-6%[46.1 µM]	11%[46.1 µM]	11%	/	/	-20%	-1%
O=C(CSc1ccc(-c2ccc(F)cc2)nn1)NCc1ccco1	0%	?	1%	-15%	-14%	-1.8%	-4%	9%
COc1cccc(C(=O)N2CCN(Cc3ccccc3Br)CC2)c1	3%	/	/	-23%	/	/	-19%	-26%
C=CCc1cccc(C2Nc3ccccc3C(=O)N2O)c1O (stereo not drawn)	30%	13%	-1%	-11%	4%	0.2%	5%	-50%
CSc1cccc(NC(=O)CN(C)S(=O)(=O)c2cnc[nH]2)c1	-5%	/	/	5%	/	/	-1%	9%
CCN(CC(=O)Nc1c(F)cccc1F)C(=O)c1cc(S(=O)(=O)N2CCOCC2)ccc1N1CCCC1	-1%	-3%	4%	0%	/	/	0%	/
COc1ccc(C(=O)C2CCCN(Cc3ccccn3)C2)c(OC)c1 (stereo not drawn)	1%	/	/	-1%	/	/	-23%	0%
O=S(=O)(c1cccc(Cl)c1)N1CCCC1	4%	27%	11%	7%	-4%	2.7%	-4%	-4%
CCC(c1nnc(SCC(=O)NNC(=O)c2ccccc2)n1Cc1ccccc1)N(C)C (stereo not drawn)	-2%	13%	1%	-7%	/	/	5%	/
CCOC(=O)CC1C(=O)NCCN1C(=O)c1sc2ccccc2c1Cl (stereo not drawn)	0%	/	/	13%	/	/	-1%	-3%
CC[N+](CC)(CC)CCCCOc1ccc2c(c1)C(=O)c1cc(OCCCC[N+](CC)(CC)CC)ccc1-2	-1%	/	/	-7%	/	/	-27%	-2%
O=C(OCc1nnc(-c2ccc(Br)cc2)o1)c1cncc(Br)c1	1%	29%[46.1 µM]	20%	14%	/	/	35%	-9%
COc1ccc(/C=C2\SC(=S)N(CCCC(=O)N3CCOCC3)C2=O)cc1	/	?	-23%	-18%	/	/	-26%	/
COc1ccc(N=C2NN=C(c3ccc4c(c3)OCCO4)CS2)cc1	-2%	1%	-13%	2%	25µM*	-3.3%	-3%	14%
Cc1ccc(S(=O)(=O)NCCC(=O)Nc2cccc(S(N)(=O)=O)c2)cc1C	-5%	-2%	4%	10%	/	/	2%	-9%
Cc1nc2ccc(Br)cc2c(-c2ccccc2)c1C(=O)O	1%	-3%[46.1 µM]	9%	-13%	/	/	-4%	2%
COc1ccc(C(=O)NNC(=O)C2CCN(S(=O)(=O)c3ccc(C)cc3)CC2)cc1	0%	0%[46.1 µM]	15%[46.1 µM]	9%	/	/	-9%	0%
COc1cccc(/C=C/C(=O)NNC(=O)c2cc(C)oc2C)c1	0%	-13%	12%	2%	/	/	-20%	/
CC(C)CN1C(=O)c2ccc(C(=O)Nc3ccc(O)cc3C(=O)O)cc2C1=O	2%	25%	7%	-15%	/	/	4%	5%
CC1CCCCN1Cc1ccc(-c2nn[nH]n2)cc1 (stereo not drawn)	2%	-10%	4%	-18%	-2%	-6.4%	15%	-26%
Cc1ccc(S(=O)(=O)CCC(=O)OCC(=O)c2ccc(C)c(C)c2)cc1	-5%	-2%	-9%	-15%	-11%	-14%	5%	-24%
CC(=O)N1c2ccc(S(=O)(=O)N3CCC(C(=O)N4CCN(c5ccccc5F)CC4)CC3)cc2CC1C (stereo not drawn)	2%	-28%[46.1 µM]	?	?	/	/	-4%	-5%
Cc1ccc(NC(=O)Cn2c(=O)oc3ccccc32)cc1	0%	-3%[46.1 µM]	9%	9%	/	/	27%	-2%
COc1ccc(C2c3c(oc4ccccc4c3=O)C(=O)N2c2ccccn2)cc1OC (stereo not drawn)	1%	/	/	-9%	/	/	8%	-22%
O=C(CSC1c2ccccc2-c2ccccc21)N/N=C/c1ccccc1O	-21%	8.2µM*	12µM*	?	-12%	-7.3%	7%	-124%
Cc1noc(C)c1C(=O)N1CCN(Cc2ccc3c(c2)OCO3)CC1	3%	14%	3%	13%	-13%	-1.8%	-2%	2%
CC1CCC2(CC1)NC(=O)N(Cc1nnc(-c3cccs3)o1)C2=O (stereo not drawn)	-1%	-17%[46.1 µM]	-25%[46.1 µM]	-12%	/	/	12%	/
O=C1CCCc2cc(S(=O)(=O)N3CCCC(C(=O)NCc4ccccc4Cl)C3)ccc2N1 (stereo not drawn)	/	/	?	?	6%	-3.1%	/	/
CC1Nc2nc(NC(=O)C(C)(C)C)[nH]c(=O)c2N(C)C1C (stereo not drawn)	-7%	?	10%	9%	3%	-0.4%	2%	25%

# (cont.)
canonical_smiles	SARS PLpro yeast	MARV entry inh	Lassa entry inh	2A StopGo	Cruzain inh noDet	Cruzain inh Det	RE007 growth inh	NS1 inh
Cc1sc2c(c1C)c(=O)n(CCc1ccccc1)c(=O)n2Cc1ccc(F)cc1	/	-2%[46.1 µM]	4%[46.1 µM]	?	-18%	-1.4%	/	/
COc1cccc(Nc2nc3ccc(C(=O)c4ccccc4)cc3n3cnnc23)c1	0%	/	/	?	/	/	0%	8%
COc1ccc(C(=O)NC2CCN(CC(=O)NCc3ccccc3F)CC2)cc1	1%	6%[46.1 µM]	14%	9%	/	/	-11%	8%
CCN(c1ccccc1)S(=O)(=O)c1ccc(OC)c(NC(=O)CNCC(C)O)c1 (stereo not drawn)	-1%	-11%	-29%	-13%	13%	2.8%	8%	7%
Cc1nc2c3cccnc3nn2c(C)c1CCC(=O)NCc1ccccc1Cl	/	?	20%[46.1 µM]	-8%	?	6.5%	/	/
